S aureus helic – S. aureus DNA helicase inhibition. purified S. aureus helicase, fluorescence unwinding assay; about half of the hits fall short of the stated cut. inhibition, %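 (tested at about 80 µM)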. 120,000 compounds, 0.05% hits;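 active = both duplicates at 50% or more, or one of them with a favoured structure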;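 note: 0% = mean of negative control wells and 100% = mean of positive control wells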
MgrA DNA FP – modulators of Staphylococcus aureus MgrA DNA binding; fluorescence polarization; inhibition, %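 (about 10 µg/mL by stock and volumes)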; 84,000 compounds, 0.13% hits; AID 602314;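 active = above 50% in either of two replicates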;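 note: 0% = protein plus DNA without compound and 100% = DNA alone without protein; higher means less MgrA bound to DNA so lower polarization; one replicate is shown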
* hit, by the source's call; . = no result given; & = joins results of further samples. The list is partial. The share of hits here may be higher or lower than overall.

Sample of the layout, two compounds:
Every second line gives: MgrA DNA FP	S aureus helic
> Cc1cc(C)cc(N2C(=O)CC(=O)NC2=S)c1
 : 0.6	10.0
> CCN(CC)c1ccc(CN2CC=C(c3ccc(F)cc3)CC2)cc1
 : -2.5	16.0

The listing, from the start:
Every second line gives: MgrA DNA FP	S aureus helic
> Cc1cc(C)cc(N2C(=O)CC(=O)NC2=S)c1
 : 0.6	10.0
> CCN(CC)c1ccc(CN2CC=C(c3ccc(F)cc3)CC2)cc1
 : -2.5	16.0
> COc1cccc2c1OC[C@H]1CON(C)[C@@H]21
 : -1.0	.
> Cc1ccc(-n2c(CCC(=O)O)nc3ccccc3c2=O)cc1
 : .	-8.0
> Cc1ccc(NC2=NC(C)CS2)c(C)c1 (stereo not given)
 : .	-13.0
> COc1ccccc1C(=O)CN1CCCCC1C (stereo not given)
 : .	-2.0
> C=C(C)CN(CC)C1CCC(CC)CC1 (stereo not given)
 : 1.7	-2.0
> Clc1ccccc1NC1=NCCCS1
 : .	2.0
> Cc1c(C(=O)O)c2ccccc2n1C
 : -2.4	7.0
> c1ccc(C2CCCNC2)cc1 (stereo not given)
 : .	-14.0
> CCC1CN(C)CCC1(O)c1ccccc1 (stereo not given)
 : -1.9	7.0
> CN1C2CC(=O)CC1C(O)C2 (stereo not given)
 : 4.3	.
> COc1ccccc1-n1c(SC(C)C)nc2ccccc2c1=O
 : -0.1	-11.0
> CC(O)CNC1CCCC(C)C1 (stereo not given)
 : 5.5	13.0
> CNC(C)Cc1ccccn1 (stereo not given)
 : 0.4	10.0
> CCc1c(O)n(C2CCCCC2)c(=S)[nH]c1=O
 : 3.4	.
> Cc1nn(-c2ccccc2)c(Cl)c1C1C(C#N)=C(N)Oc2c1c(=O)oc1ccccc21 (stereo not given)
 : 4.2	.
> CC(C)(C)NCC(O)c1ccccc1Cl (stereo not given)
 : 2.0	.
> CCOC(=S)SCc1nc2ccccc2c(=O)n1-c1ccccc1
 : 0.8	3.0
> CCn1cc(CCCC(=O)N2CCC3(CC2)OCCO3)c2ccccc21
 : .	5.0
> COc1ccccc1N1CCN(CC#N)CC1
 : -2.1	.
> Oc1cc(Cl)c(Cl)cc1O
 : 0.6	9.0
> C=CCN1C(=O)/C(=C\c2ccc(N(CC)CC)cc2)C(=O)NC1=S
 : 9.8	.
> Cc1ccc(S(=O)(=O)NC(CC(=O)N2CCC3(CC2)OCCO3)c2ccco2)cc1 (stereo not given)
 : .	5.0
> C=C(C)C1CNC(C(=O)O)C1CC(=O)O (stereo not given)
 : -1.1	.
> Cc1cc(OCc2cccc(C(F)(F)F)c2)c2c3c(c(=O)oc2c1)CCC3
 : 3.2	1.0
> CC(=O)O[C@@H]1CC[C@]2(C)C3CC[C@]4(C)C(=O)CCC4C3CC[C@H]2C1 (stereo not given in full)
 : 3.0	.
> COc1cc(CN2CCN(c3cccc(Cl)c3)CC2)ccc1O
 : 0.1	-18.0
> CN1C2CCC1CC(NC1CCCCC1)C2 (stereo not given)
 : -0.7	-17.0
> CCOP1(=S)Oc2cc(Cl)ccc2C(C(F)(F)F)(C(F)(F)F)O1 (stereo not given)
 : 1.3	18.0
> Cc1noc(C2CCCNC2)n1 (stereo not given)
 : -2.8	9.0
> CN1C[C@H](CO)C=C2c3cccc4[nH]cc(c34)C[C@H]21
 : 5.2	.
> COCCOC(=O)C1=C(N)Oc2c(c(=O)oc3ccccc23)C1c1ccncc1 (stereo not given)
 : -1.1	.
> O=C1NC(=S)NC(=O)C1=Cc1ccco1
 : .	24.0
> CN(C)C(C#N)c1cn(C)c2ccccc12 (stereo not given)
 : 2.2	16.0
> Brc1cccc(CN2CCN(Cc3cccc(Br)c3)CC2)c1
 : -5.8	4.0
> Cc1ccc(N/N=C/c2c(O)n(-c3ccccc3)c(=O)[nH]c2=O)cc1
 : .	-1.0
> CCN1CCN(Cc2cc(Br)c(O)c(OC)c2)CC1
 : -4.1	0.0
> CNC(=O)O/N=C/c1nn(C(C)=O)cc1Br
 : .	-29.0
> CCC(=O)c1ccc(OC)c(F)c1
 : 2.0	.
> CC(C)C1(O)c2ccccc2-c2ncccc21 (stereo not given)
 : 0.2	.
> C/C=C1\CC(C)C(C)(O)C(=O)OCC2CCN3CCC(OC1=O)C23 (stereo not given)
 : .	-8.0
> CCCC1=C(C(=O)OCC)C2(C(=O)Nc3ccccc32)C(C(=O)OC(C)(C)C)=C(N)O1 (stereo not given)
 : 3.3	.
> CC(N)Cc1cccs1 (stereo not given)
 : 1.8	2.0
> COC(=O)NP(=O)(NNc1ccccc1)OC (stereo not given)
 : .	1.0
> Cc1ccc(NC(=O)N(C)C)cc1Cl
 : -0.4	.
> C1CCN2C(C3N4CCCCN34)N2C1 (stereo not given)
 : -1.5	-8.0
> CC(C)c1ccc(N=Nc2c(O)[nH]c(=O)[nH]c2=O)cc1
 : -2.9	.
> Cc1ccc2c(c1)C(c1ccccc1)NCC(=O)N2 (stereo not given)
 : .	-26.0
> c1csc(C2NCCc3[nH]cnc32)c1 (stereo not given)
 : -2.9	.

Continued.
Every second line gives: MgrA DNA FP	S aureus helic
> COc1ccc(/C=C2\C(=O)C3CCN2CC3)cc1
 : 0.9	.
> Cc1cc(OCC(=O)c2ccc(F)cc2)c2c3c(c(=O)oc2c1)CCC3
 : 1.1	1.0
> CN1CCC(C#N)(c2ccccc2)CC1
 : -0.7	19.0
> CC(NC(=O)Cc1cccc2ccccc12)C(=O)N1CCC(=O)CC1 (stereo not given)
 : .	8.0
> Cc1[nH]c2ccccc2c1CCNCc1ccncc1
 : .	11.0
> CCOC(=O)C1SC2(C(F)(F)F)CC1(O)c1c(C)cc(C)nc1O2 (stereo not given)
 : -0.3	9.0
> O=C1NC(=S)NC(=O)C1C1CCCCC1
 : -1.1	2.0
> CCN(CC)P1(=S)OC(C)(C)CC1(C)O (stereo not given)
 : 0.3	18.0
> CC(C)C1C(C#N)=C(N)Oc2c1c(=O)oc1ccccc21 (stereo not given)
 : .	5.0
> O=c1c2ccccc2nc(-c2ccncc2)n1-c1ccc(Cl)cc1
 : 0.9	-17.0
> O=c1cccc2n1CC1CC2CN(CC(O)/C=N/n2cnnc2)C1 (stereo not given)
 : 5.9	-13.0
> Cc1[nH]c2ccccc2c1CCNCc1cccs1
 : .	3.0
> CC[N+]12CCC(CC1)C(C(O)(c1ccccc1)c1ccccc1)C2 (stereo not given)
 : 0.1	8.0
> CC(C)c1ccc(O)c(CN2CCN(c3ccccc3)CC2)c1
 : .	18.0
> CC(C)CNC1CCC(O)CC1 (stereo not given)
 : .	-10.0
> OCC1(CO)COC(c2cccnc2)N1 (stereo not given)
 : 0.7	3.0
> O=C(NC(=S)Nc1cc(C(F)(F)F)cc(C(F)(F)F)c1)Oc1ccccc1
 : 4.7	.
> COc1ccc2c(c1OC)C(=O)OC2C1c2cc3c(cc2CCN1C)OCO3 (stereo not given)
 : -2.2	9.0
> CN(C)P(=NC(=S)Nc1ccccc1)(N(C)C)N(C)C
 : .	6.0
> CSc1nnc(C(C)(C)C)c(=O)n1N
 : 2.0	12.0
> COc1ccccc1CCN(Cc1ccco1)Cc1ccco1
 : -4.8	1.0
> CCCC/C(=N\O)c1c(C)[nH]c2ccccc12
 : 4.7	17.0
> COc1ccc(CN2CCN(C(=O)COc3ccccc3)CC2)cc1OC
 : .	32.0
> CCOC(=O)C1=C(N)Oc2c(c(=O)oc3ccccc23)C1c1c(F)cccc1Cl (stereo not given)
 : 0.2	.
> CCN1CCN(Cc2ccccc2C#N)CC1
 : -5.2	3.0
> CC(=O)OC1(c2ccccc2)CC(C(C)(C)C)CN(C(C)(C)C)C1 (stereo not given)
 : 1.1	-4.0
> N=C1SC2CS(=O)(=O)CC2N1Cc1ccccc1 (stereo not given)
 : -4.0	2.0
> Cc1ccc2c(c1)C1CN(C)CCC1N2 (stereo not given)
 : 12.8	0.0
> CC(C)c1c(CN(C)C(C)Cc2ccccc2)n(C)n(-c2ccccc2)c1=O (stereo not given)
 : -2.5	.
> CC1CN=C(NCCc2ccccc2)S1 (stereo not given)
 : 0.8	21.0

An excerpt of the results above, as a working copy:
Every second line gives: MgrA DNA FP	S aureus helic
> COc1ccccc1CCN(Cc1ccco1)Cc1ccco1
 : -4.8	1.0
> CCCC/C(=N\O)c1c(C)[nH]c2ccccc12
 : 4.7	17.0
> COc1ccc(CN2CCN(C(=O)COc3ccccc3)CC2)cc1OC
 : .	32.0
> CCOC(=O)C1=C(N)Oc2c(c(=O)oc3ccccc23)C1c1c(F)cccc1Cl (stereo not given)
 : 0.2	.
> CCN1CCN(Cc2ccccc2C#N)CC1
 : -5.2	3.0
> CC(=O)OC1(c2ccccc2)CC(C(C)(C)C)CN(C(C)(C)C)C1 (stereo not given)
 : 1.1	-4.0

(list continues)
Every second line gives: MgrA DNA FP	S aureus helic
> N#CC(C#N)=Cc1cccc(OC(F)F)c1
 : .	0.0
> C#CCN1CCCC2(CCOC(C)(CC)C2)C1 (stereo not given)
 : .	8.0
> O=C1NC(=O)C(Cc2ccccc2)C(=O)N1
 : -3.7	13.0
> CC(C)N1CCC(n2nnc3ccccc32)CC1
 : 1.3	.
> Nc1nnc(CCN2CCCCC2)s1
 : -0.4	13.0
> Nc1ccccc1C(=O)c1ccccc1
 : .	5.0
> O=C(Cc1cccc2ccccc12)N1CCN(Cc2ccccc2)CC1
 : .	-16.0
> O=C(O)CCn1cc(C=C2C(=O)NC(=O)NC2=O)c(-c2cc3ccccc3oc2=O)n1
 : .	1.0
> CN1CCC2=C[C@@H](O)C3OC(=O)c4cc5c(cc4C3[C@H]21)OCO5 (stereo not given in full)
 : -2.6	.
> COc1ccc(C=C2C(=O)NC(=S)NC2=O)cc1Br
 : 27.8	.
> O=C(C(Cc1ccccc1)NS(=O)(=O)c1cccc2nsnc12)N1CCC2(CC1)OCCO2 (stereo not given)
 : 2.8	3.0
> CCCc1c(C)nc(SCC(=O)C(C)(C)C)nc1OC(=O)N(C)C
 : -0.1	.
> Cc1csc2sc(C=C(C#N)C#N)c(C)c12
 : .	14.0
> CN(CC1CC=CCC1)CC(O)c1ccccc1 (stereo not given)
 : -2.0	3.0
> Cc1c(C(=O)N2CCC3(CC2)OCCO3)oc2ccc(S(=O)(=O)N3CCCCC3)cc12
 : .	5.0
> CN1CCC(N(C)c2ncnc3ccc(Br)cc23)CC1
 : .	-9.0
> CCOC(=O)CSC(c1ccccc1)c1c(C(=O)OC)[nH]c2ccccc12 (stereo not given)
 : 0.2	3.0
> CSc1ccc(CN2CCN(Cc3cccc(C)c3)CC2)cc1
 : -3.7	12.0
> O=c1c2ccccc2nc(-c2ccccc2)n1-c1cccc(O)c1
 : .	13.0
> Fc1cccc(Cl)c1CN1CCN(Cc2c(F)cccc2Cl)CC1
 : -1.0	.
> O=C1NC(=O)C(=Cc2ccc(-c3cc(C(=O)O)ccc3Cl)o2)C(=O)N1
 : .	32.0
> N#CC(C#N)=NNc1ccc(-n2ccc(C(F)(F)F)n2)cc1
 : .	-10.0
> CCOc1cc(C(F)(F)F)cnc1/C(N)=N/OC(=O)NC
 : .	31.0
> O=C1C2CC(CN3CCCC[C@@H]23)[C@H]2CCCCN12 (stereo not given in full)
 : .	22.0
> CCCCc1ccc(N/C=c2/c(C)c(C#N)c3nc4ccccc4n3c2=O)cc1
 : 0.4	-25.0
> CCCC(C)(COC(N)=O)COC(=O)NC(C)C (stereo not given)
 : 3.8&3.1	.
> CCOc1ccc(C=C2C(=O)NC(=S)NC2=O)cc1
 : 24.8	.
> CC(C)C12CN3CCN(CC(C3)/C1=N/N)C2
 : 1.1	-6.0
> CN1CCc2c(c(N3CCCCC3)nc3n[nH]c(N)c23)C1
 : -0.6	5.0
> Cc1cc(N2CCN(C)CC2)ncn1
 : .	0.0
> CN=Cc1c(O)[nH]c(=O)[nH]c1=O
 : -0.5	18.0
> O=c1cc(CN2CC=C(c3ccccc3)CC2)nc2scc(-c3ccccc3)n12
 : .	13.0
> CCC(N)C(=O)c1ccc(Cl)cc1 (stereo not given)
 : 1.0	1.0
> CC(=O)Nc1c(O)[nH]c(=S)[nH]c1=O
 : -0.7	14.0
> Clc1ccccc1CC1=NCCN1
 : 3.0	.
> c1ccc2c(NC3=NCCS3)cccc2c1
 : 0.4	9.0
> Fc1ccc(NC2=NCCN2)cc1
 : 0.4	.
> CC(c1ccccc1)n1cncc1C(=O)N1CCCC1=O (stereo not given)
 : -2.9	5.0
> CN1CCc2nc(SCc3cccc(Cl)c3)c(C#N)cc2C1
 : 0.2	3.0
> Cc1ccccc1-n1c(O)c(/C=N/c2nccs2)c(=O)[nH]c1=O
 : -1.8	15.0
> C=CCNC(=O)c1c(N)n(Cc2ccccc2)c2nc3ccccc3nc12
 : -1.5	9.0
> COCCNC(=O)c1c(N)n(Cc2ccccc2)c2nc3ccccc3nc12
 : .	10.0
> CCOC(=O)C1=C(NC(=O)c2ccccc2)c2ccccc2CC12CCCC2
 : -1.1	18.0
> O=C(c1cccs1)C1CN(Cc2ccccc2)CCC1(O)c1cccs1 (stereo not given)
 : .	13.0
> CCN(CC(=O)c1ccccc1Cl)C1CCCCC1
 : .	-5.0
> O=C(CCn1nc(-c2ccc(Cl)cc2)ccc1=O)N1CCC2(CC1)OCCO2
 : -0.9	4.0
> Cc1ccc(OCC(=O)N2CCN(CC3CC4C=CC3C4)CC2)cc1 (stereo not given)
 : -3.4	3.0
> Cc1nc2c(Br)cc(Br)cc2c(=O)n1-c1ccc(Cl)c(Cl)c1
 : 4.6	.
> CN1CCc2nc3sc(C(N)=O)c(N)c3cc2C1
 : .	3.0
> CCP(=O)(CC)Nc1cccc(C(F)(F)F)c1
 : -1.9	7.0

Next section
Every second line gives: MgrA DNA FP	S aureus helic
> CN(C)[C@@H]1C(=O)C(C(N)=O)=C(O)[C@@]2(O)C(=O)C3=C(O)c4c(O)cccc4[C@@](C)(O)[C@H]3[C@H](O)[C@@H]12
 : 0.6&5.3	.
> CNC1CCCC1
 : .	7.0
> Nc1nonc1NC(=O)COC1CN2CCC1CC2 (stereo not given)
 : .	15.0
> COC(=O)C1(O)c2ccccc2-c2ccccc21
 : 0.7	5.0
> COc1ccc(OC)c(C(O)C(C)N)c1 (stereo not given)
 : -0.9&0.2	.

Bioassay records: PubChem BioAssay, ICCB-Longwood Screening Facility, Harvard Medical School
